Assay outcomes deposited in PubChem by ICCB-Longwood Screening Facility, Harvard Medical School.
S aureus helic: blocks Staphylococcus aureus DNA helicase; inhibition, %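 (tested at about 80 µM)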; purified S. aureus helicase, fluorescence unwinding assay; about half of the hits fall short of the stated cut; AID 485395; 120,000 compounds, 0.05% hits;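 active means both duplicates at 50% or more, or one of them with a favoured structure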;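 further: 0% = mean of negative control wells and 100% = mean of positive control wells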
MgrA DNA FP: S. aureus MgrA-DNA binding modulation; fluorescence polarization; inhibition, %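 (about 10 µg/mL by stock and volumes)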; 84,000 compounds, 0.13% hits; AID 602314;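 active means above 50% in either of two replicates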;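 further: 0% = protein plus DNA without compound and 100% = DNA alone without protein; higher means less MgrA bound to DNA so lower polarization; one replicate is shown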
* marks the source's active call; other numbers are inactive results; . = no result given; & = joins results of further samples.

| structure | S aureus helic | MgrA DNA FP |
| --- | --- | --- |
| C=C(C)CN(CC)c1nc(N)c2c(N)nc3c(c2c1C#N)CC(=O)N3C12CC3CC(CC(C3)C1)C2 | -11 | . |
| COC(=O)c1cc(OC)c(OC)cc1NC(=O)c1cnc(N(C)C)nc1C(F)(F)F | -13 | . |
| O=C(CSC1CC(=O)N(c2ccccc2)C1=O)Nc1ccc(Cl)cc1 (configuration not stated) | 14 | 2.2 |
| O=C(CCN1CCCC1)c1ccc2ccccc2c1 | . | -9.3 |
| COc1ccccc1CN1C(=O)NC2(CCOc3ccccc32)C1=O (configuration not stated) | 22 | . |
| CCC(=O)N1CCN=C1SCc1ccccc1 | -4 | . |
| CC(=O)Nc1c(C)[nH]n(-c2ccccc2)c1=O | -1 | -0.6 |
| CN(C(=O)CSc1nc(-c2ccccc2)cn1N)C1CCS(=O)(=O)C1 (configuration not stated) | 7 | . |
| N#Cc1c(N2CCCC2)oc2nc3ccccc3nc12 | -25 | . |
| CN1C(=O)N(C)c2cccc3cccc1c23 | 8 | . |
| CC(C)(C)C1=C(C#N)C(c2cccs2)C(C#N)=C(NC(=O)NC(=O)c2c(F)cccc2Cl)O1 (configuration not stated) | . | -1.9 |
| CN1C(=O)C2(NC(=O)c3ccccc3O2)c2ccccc21 (configuration not stated) | -5 | . |
| O=C(NCC1CCCO1)c1cccc(N2C(=O)C3C4C=CC(C4)C3C2=O)c1 (configuration not stated) | -39 | . |
| COCCNC(=O)c1cc2c(=O)[nH]c3ccccc3c2s1 | -15 | . |
| CSc1nnc(SCC(=O)N2CCC(C(F)(F)F)CC2)s1 | . | -3.1 |
| COc1ccc(C2CC(SCC(=O)c3ccccc3)=Nc3ncnn32)cc1 (configuration not stated) | 23 | . |
| CCOC(=O)c1sc(SC)c(S(=O)(=O)C(C)C)c1N | . | -2.1 |
| O=C(Cn1cc(C(=O)C2CC2)c2ccccc21)NC1CCCC1 | 12 | . |
| CN1C(=O)CC[C@H]1c1cccnc1 | . | 7.2&2.5 |
| Cc1ccc(NC(=O)c2ccc(S(=O)(=O)N3CCCC3)cc2)cc1 | -18 | . |
| Cc1ccccc1NC(=O)C1CC(=O)OC1(C)C (configuration not stated) | 2 | 1.1 |
| CC(=O)Nc1ccc(NC(=O)COc2ccc(C)cc2)cc1 | . | -2.5 |
| O=C(COc1ccccc1)Nc1ccccc1N1CCCC1 | 23 | 4.4 |
| CCN(c1cccc(C)c1)S(=O)(=O)c1c(C)[nH]c(=O)[nH]c1=O | 2 | -0.3 |
| CCN(C(=O)CSc1nc2ccncc2[nH]1)c1cccc(C)c1 | 2 | . |
| O=C(CCS(=O)(=O)c1cccc2nonc12)N1CCN(C(c2ccccc2)c2ccc(Cl)cc2)CC1 (configuration not stated) | 11 | . |
| CC(=NCc1cccnc1)c1c(C)[nH]n(-c2nc3ccccc3s2)c1=O | 8 | 0.2 |
| CCn1c(C(=O)N2CCC(C(=O)NC3CCCCCC3)CC2)cc2sccc21 | 9 | 0.1 |
| CC(C)Cn1c(O)c(Nc2ccc3c(c2)=NC(=O)N=3)c2ccccc21 | -3 | . |
| OC(Cn1cnc2ccccc21)Cn1c2ccccc2c2ccccc21 (configuration not stated) | 12 | 2.0 |
| CC1=C(C#N)C(c2cc(F)ccc2F)C(C(=O)OCc2ccccc2)=C(N)O1 (configuration not stated) | 7 | -3.0 |
| C/C(=N\O)c1ccc2c(c1)CCO2 | . | 3.2 |
| Nc1nonc1OCc1ccc2c(c1)OCO2 | 3 | -2.2 |
| CCOC(=O)c1cc(CC)sc1NC(=O)CC#N | . | -1.9 |
| Cc1ccc2oc(-c3ccccc3)cc(=O)c2c1 | . | -3.5 |
| C(=N\N1CCOCC1)/c1ccccn1 | -4 | . |
| C/C(=N\NC=O)c1ccccn1 | -9 | . |
| Brc1c(Oc2ccccc2)ncnc1Oc1ccccc1 | . | -0.6 |
| CCOC(=O)c1cnn(-c2ccccc2)c1-c1ccncc1 | 21 | . |
| COc1ccc(CNCc2ccc(C)cc2)cc1 | -17 | -1.1 |
| CNC(=S)N/N=C(\C)c1ccc(OC)cc1 | . | -0.7 |
| CC(=O)OCc1ccc(/C=C/C(=O)O)o1 | 26 | . |
| O=C(c1ccccc1N1C(=O)c2cccc3cccc(c23)C1=O)N1CCOCC1 | 20 | . |
| Cc1c2cnn(CC(=O)NCCCN3CCOCC3)c(=O)c2c(C)n1Cc1ccccc1F | -17 | . |
| O=C(COc1ccc(Cl)cc1Cl)N(Cc1cccs1)C1CCS(=O)(=O)C1 (configuration not stated) | -7 | . |
| O=C(/C=C/c1ccco1)N1CCN(S(=O)(=O)c2ccccc2)CC1 | 17 | . |
| COc1ccc(Cl)cc1NC(=O)CC(=O)Nc1ccc2nc3n(c(=O)c2c1)CCCCC3 | 2 | . |
| N/C(=N\O)c1ccc(OCc2ccc(Cl)cc2)cc1 | . | -1.1 |
| CCN1C(=O)Cc2cc(S(=O)(=O)N3CCOCC3)ccc21 | -3 | 0.7 |
| Cc1ccc(CN2CC34C=CC(O3)C(C(=O)O)C4C2=O)cc1 (configuration not stated) | 5 | . |
| Cc1cccc(NC(=O)Cn2c(=O)sc3ccccc32)c1 | 3 | 2.2 |
| CC(=O)NO | . | 4.5 |
| CCCNC(=O)c1c(O)nc2ccccn2c1=O | -22 | . |
| CCOC(=O)C1=C(C)Nc2ccccc2N/C1=N\S(=O)(=O)c1ccccc1 | 7 | . |
| COC(=O)C1(OC)COc2ccccc2O1 (configuration not stated) | 14 | -2.0 |
| S=C(NCCN1CCOCC1)Nc1ccc(-c2nnc3n2CCCCC3)cc1 | 0 | . |
| COc1ccc(C2C(C(=O)NCc3ccco3)c3ccccc3C(=O)N2C)cc1 (configuration not stated) | -34 | . |
| COc1ccc(-c2nn(C)c3sc(C(=O)O)cc23)cc1OC | 4 | . |
| O=C(COc1cc2ccccc2cc1C(=O)N1CCOCC1)Nc1ccc2c(c1)OCCO2 | 7 | . |
| CN(Cc1ccccc1F)C(=O)c1cccc(S(=O)(=O)N(C)C)c1 | 2 | . |

Remaining list, next part:
| structure | S aureus helic | MgrA DNA FP |
| --- | --- | --- |
| CC(=O)NC(=O)/C(C#N)=C/N1CCOCC1 | -18 | . |
| O=C1CC(CS(=O)(=O)c2ccc(C(F)(F)F)cn2)=NN1c1ccccc1 | . | -0.6 |
| CC(=O)Nc1ccc(OC(=O)c2ccccc2O)cc1 | . | 1.2 |
| CCCOc1ccc(C2/C(=C(/O)c3ccc(C)c(F)c3)C(=O)C(=O)N2Cc2ccco2)cc1 (configuration not stated) | 10 | . |
| CC(=O)c1ccc(-c2ccc(C(C)=O)cc2)cc1 | . | 0.7 |
| OCc1cn(Cc2ccccc2Cl)c2ccccc12 | -1 | . |
| CCOC(=O)c1c(C)[nH]c(C)c1C(=O)CSc1nnc2oc3ccc(S(=O)(=O)N(C)C)cc3n12 | -13 | . |
| C=CCNCc1ccc(-c2cccc(Cl)c2C)o1 | 20 | -1.8 |
| NC(=O)CSc1nnc(C2CC2)n1CC1CCCO1 (configuration not stated) | 18 | -1.1 |
| O=c1ccc(-c2ccc(S(=O)(=O)NCc3ccccc3)s2)n[nH]1 | 8 | . |
| CC(C)c1ccc(NC(=O)CSc2n[nH]c(=O)n2C2CC2)cc1 | . | 4.3 |
| CC(C)(C)c1cn2nc(C(C)(C)C)sc2n1 | . | 0.1 |
| CCOC(=O)C(C(=O)Nc1cccc(C(F)(F)F)c1)C1CCCCC1 (configuration not stated) | 15 | 1.4 |
| ClCc1cccc2c(CCl)cccc12 | -10 | -1.9 |
| COc1ccc(C(NC(=O)CSc2nncn2C(C)C)c2ccccc2)cc1 (configuration not stated) | 8 | . |
| O=C(COC(=O)CCc1c[nH]c(=O)[nH]1)Nc1ccc2ccccc2c1 | 3 | -1.7 |
| CC1=C(c2ccc(Cl)cc2)S(=O)(=O)N=C1N1CCC(C(=O)NC2CCCC2)CC1 | -2 | . |
| O=C(/C=C/c1ccco1)N1CC=C(c2ccccc2)CC1 | -10 | . |
| O=CNc1ccc(OC(=O)c2cncc(Br)c2)cc1 | -8 | . |
| CCC1(C)N=C(c2ccccc2)C(=S)N1 (configuration not stated) | -27 | . |
| CCOC(=O)N1CCN(C(=S)Nc2cc(OC)c(OC)cc2C(=O)OC)CC1 | 5 | -1.0 |
| CC12CC(c3ccccc3O1)C(C(=O)NCc1ccccc1)C(=O)N2 (configuration not stated) | 6 | -6.1 |
| S=c1[nH]nc(-c2cccc(Br)c2)o1 | 6 | . |
| COc1ccc(/C=C2/Oc3ccccc3N(CC(=O)NC3CCCc4ccccc43)C2=O)cc1 (configuration not stated) | 5 | -1.6 |
| COc1ccc(N2C(=O)/C(=C\c3ccco3)N=C2SCc2cc(=O)n3ccsc3n2)cc1Cl | 9 | . |
| CCOC(=O)CN1C(=O)CSc2ccccc21 | 5 | . |
| COc1ccc(Cc2nc(S(=O)(=O)c3ccc(C)cc3)c(NCc3ccccc3)o2)cc1 | 4 | -1.1 |
| O=C(Cc1n[nH]c(=O)c2ccccc12)NCC1CCCO1 (configuration not stated) | -11 | . |
| NC(=O)NC(=O)Nc1ccc(Cl)cc1 | 0 | 1.5 |
| O=C1Nc2ccccc2C1c1ncc(C(F)(F)F)cc1Cl (configuration not stated) | . | 2.0 |

The list continues:
Order of results – S aureus helic	MgrA DNA FP
> CN(C)C(CNC(=O)c1cccc(OC(F)F)c1)c1ccco1 (configuration not stated)
  -1	.
> O=C(CSc1nnc(-c2ccccc2)c(-c2ccccc2)n1)NCCC1=CCCCC1
  -1	-0.6
> CSc1nc2ccc(NC(=O)c3cc(Cl)ccc3[N+](=O)[O-])cc2s1
  .	-0.9
> COc1cc2nc(NC(C)=O)sc(=O)c2cc1OC
  .	0.1
> NC(=O)C1CCCN1S(=O)(=O)c1ccc(F)cc1 (configuration not stated)
  12	-0.6
> CCOC(=O)N1CCc2ccccc21
  12	.
> CC(=O)NC1(C(F)(F)F)C(=O)Nc2c1c(=O)[nH]c(=O)n2Cc1ccco1 (configuration not stated)
  12	-0.1
> CCOC(=O)/C(C#N)=C/Nc1nc(CN2CCCCC2)cs1
  -29	.
> c1ccc(Cn2c(-c3ccccc3)nc3ccccc32)cc1
  13	-1.6
> O=C(NC(=S)Nc1ncccn1)c1cccs1
  -2	.
> COc1ccc(C(CC(=O)N2CCN(Cc3ccccc3)CC2)n2cccc2)cc1 (configuration not stated)
  -13	.
> Cc1c(C)c2c(ccc3c(C)cc(=O)oc32)oc1=O
  -62	.
> CCN(/N=C\c1ccccc1O)C(=S)NC
  5	0.5
> COC(=O)Cc1nc(NC(=O)c2ccc(OC)cc2)sc1C
  -15	.
> O=C(OCc1nc2ccccc2s1)c1cccc(Br)c1
  16	.
> CCOc1ccc(C(=O)OCC(=O)Nc2cccc(Cl)c2)cc1
  -6	0.8
> CCOCC(=O)Nc1cccc(C(F)(F)F)c1
  6	-2.5
> Cc1ccc(Oc2ccc3c(c2)C(=O)N(CC(=O)O)C3=O)cc1
  4	-1.1
> COc1cccc(CNC(=O)c2ccc3nc[nH]c3c2)c1
  0	.
> CN1CCN(/N=C/c2ccc(-c3ccccc3)cc2)CC1
  -10	.
> CCN1CCN(C(c2ccccn2)c2c(C)[nH]c3ccccc23)CC1 (configuration not stated)
  12	.
> Cc1c(Cl)cccc1Nc1ccccc1C(=O)O
  .	0.3&2.1
> O=[N+]([O-])c1cccnc1NCc1ccccn1
  .	0.0
> O=S(=O)(Nc1cccnc1)c1ccccc1
  20	-3.4
> CC1(C)CC(=O)C2=C(C1)N(Cc1cccnc1)C(=O)NC2(C(F)(F)F)C(F)(F)F
  0	0.0
> O=C(NC1CCN(Cc2ccccc2)CC1)c1cc(-c2ccco2)nc2ccccc12
  -9	.
> COc1cc(/C=c2\sc3nc(-c4ccco4)nn3c2=O)cc(Br)c1OC(C)=O
  -29	.
> COC(=O)c1oc2ccc(Cl)cc2c1C
  2	-1.4
> OC(COc1ccc(Br)cc1)CN1CCOCC1 (configuration not stated)
  -2	.
> Cc1ccc(N/C=C/C(=O)c2ccc(C)o2)c(O)c1
  7	5.1
> O=C(O)CNC(=O)c1ccc2c(c1)OCO2
  7	.
> O=C1CSC(c2c(F)cccc2Cl)N1c1cccc(C(F)(F)F)c1 (configuration not stated)
  -13	.
> CCOC(=O)c1[nH]c(C)c(C(=O)OCc2nc3ccc(Cl)cc3n2CCO)c1C
  10	.
> CCOC(=O)C1=C(N)Oc2c(OC)cc(Br)cc2C1C(C#N)C(=O)OCC (configuration not stated)
  .	8.2
> CCOC(=O)C1=C(C)NC(C)=C(C(=O)OCC)C1C(=O)OCC(=O)N1c2ccccc2CC1C (configuration not stated)
  -8	.
> C[C@H](NC(=O)c1ccco1)C(=O)Nc1nc(-c2ccccn2)cs1
  -19	.

These rows are one share of the data. The share of hits here may be higher or lower than overall.
